Assay outcomes: PubChem, National Center for Advancing Translational Sciences (NCATS)
Rango dissoc inh: inhibitors of RanGTP-induced Rango-importin beta complex dissociation | Potency, µM (top dose mostly 46.1 µM), for inactives: top-dose activity change, negative = inhibition | AID 540253 | O95149+P62826 | 0.071% of 340,000 active | Biochemical FRET Rango-importin beta, RanGTP-induced dissociation; active means falling FRET ratio curve, often poorly fitted, with flat reads before Ran was added; inconclusive means other falling curves, or compound fluorescence or quenching; inactive means flat or rising ratio curve;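 further: potency means the concentration at half of the fitted maximal effect; % of control where 0% means no effect; nearly all actives have a fitted effect of over 45% in size; -100% = wells without RanGTP and RCC1; the record marks most hits as doubtful in a second field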
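Recombinant Rango FRET biosensor (EYFP–snurportin 1 IBB–cerulean CFP10) at 0.1 uM premixed with 0.25 uM importin beta in PBS, 1 mM DTT, 0.02% Tween-20, 0.1% BSA. Compound added 5 min; RanGTP-RCC1 (0.6 uM Ran, 2 mM GTP, 0.2 uM RCC1) then triggers release, read at 45 min.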
GLA inh pH 4.5: alpha-galactosidase A (human) inhibition, pH 4.5; purified enzyme, 4-MU-alpha-Gal fluorescence, pH 4.5; activity change, negative = inhibition, % at 105 µM; 230,000 tested, under 10 active; AID 1467; inconclusive = small, poorly fitted or top-dose-only inhibition, or a rising curve; inactive = flat fitted curve, though single readings scatter; no compound was filed as active;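 further: 0% = full activity with enzyme and -100% = basal without enzyme; dose as in the result columns while the protocol names 77 µM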
Target sequence (P06280 whole entry, looked up): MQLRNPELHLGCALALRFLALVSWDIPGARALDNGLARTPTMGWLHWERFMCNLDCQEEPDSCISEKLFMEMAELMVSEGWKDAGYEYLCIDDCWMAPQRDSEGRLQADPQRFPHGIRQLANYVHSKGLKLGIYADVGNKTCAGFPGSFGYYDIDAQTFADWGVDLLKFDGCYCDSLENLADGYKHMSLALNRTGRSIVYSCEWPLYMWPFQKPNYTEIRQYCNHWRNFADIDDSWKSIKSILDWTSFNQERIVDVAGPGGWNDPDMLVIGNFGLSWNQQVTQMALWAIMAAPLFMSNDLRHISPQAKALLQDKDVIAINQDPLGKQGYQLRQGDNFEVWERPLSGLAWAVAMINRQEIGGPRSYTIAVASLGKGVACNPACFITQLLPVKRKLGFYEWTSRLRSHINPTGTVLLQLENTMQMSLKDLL
miR-21 FLuc: miR-21 reporter, rising signal; Potency, µM (titrated, usually from 38.3 µM), for inactives: at the highest dose reporter change, positive = more light; AID 2288; 340,000 tested, under 10 active; HeLa miR-21 FLuc reporter, luciferase, 48 h; active = well fitted rising curve with a large enough effect; inconclusive = small, poorly fitted or top-dose-only effect; inactive = no such curve, though single readings can be large or run the other way;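 further: % of control where 0% means no effect; miR-21 action dims this reporter so a rising signal means less miR-21 action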
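Compounds were titrated across several concentrations (up to approximately 40 uM) and incubated 48 hours with HeLa miR-21-FLuc reporter cells (miR-21 target sequence downstream of FLuc, endogenous miR-21). Readout was firefly luciferase luminescence after lytic detection reagent.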
Rango complex inh: prevents formation of the Rango-importin beta complex; Q14974; Rango CFP/YFP FRET sensor + importin beta, 45 min; Potency, µM (doses to about 92.2 µM), for the others: top-dose inhibition of complex formation; 0.031% of 340,000 active; AID 540263; active = rising FRET ratio curve, often small or poorly fitted; inconclusive = mostly compound fluorescence or quenching in the first reads; inactive = flat curves in all reads;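 further: potency means the concentration at half of the fitted maximal effect; 0% = DMSO wells and 100% = buffer wells lacking importin beta; nearly all actives have a fitted effect of over 15% in size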
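FRET biosensor Rango (snurportin 1 IBB between N-terminal EYFP and C-terminal Cerulean), 50 nM in PBS/1 mM DTT/0.02% Tween-20/0.1% BSA, preincubated 5 min RT with compound; 0.125 microM importin beta added, 45 min RT, CFP/YFP FRET ratio read.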
Numbers without * were called inactive; u = inconclusive; x = no result given; & = joins results of further samples. Not all compounds are listed. The share of hits here may be higher or lower than overall.

SMILES	Rango dissoc inh	GLA inh pH 4.5	miR-21 FLuc	Rango complex inh
CCOC(=O)c1c(C)[nH]c(C(=O)N2CCc3cc(OC)c(OC)cc3C2)c1C	u	x	x	1.6%
O=C(NCC1CCCO1)C(=O)N/N=C/c1ccccc1C(=O)O (stereo unspecified)	-11%	-4	0%	3.2%
COc1ccccc1C1=CC(=O)CC(C)(C)C1=O	5%	x	x	0.1%
C=C1[C@@H](OC(C)=O)CC[C@]2(C)[C@@H]1C[C@@H]1C[C@H](OC(C)=O)C(C)=C([C@@H](OC(C)=O)[C@@H]2OC(C)=O)C1(C)C	-15%	-9	24%	3.8%
CN(C)S(=O)(=O)c1cccc(C(=O)NCC(C)(C)CNC(=O)c2cccc(S(=O)(=O)N(C)C)c2)c1	17%	x	2%	-3.8%
O=C(Cc1ccccc1)Nc1ncnc2c1C(c1ccccc1)c1c(ccc3ccccc13)O2 (stereo unspecified)	2%	x	x	-9.9%
COC(=O)C1=C(C)N(C)C(=O)NC1c1ccccc1 (stereo unspecified)	13%	-7	1%	3.6%
CCn1c(CNC(=O)COc2c(C)cccc2C)nnc1SCC(=O)Nc1nccs1	-11%	-6	-2%	0.3%
CCN(CCn1cccn1)Cc1cn[nH]c1-c1ccc(OC)cc1F	-1%	-14	-3%	-5.2%
COc1cccc2c1OC1(C)CC2NC(=O)N1c1cccc(C(=O)Nc2ccc3c(c2)OCCO3)c1 (stereo unspecified)	-2%	-3	-5%	-1.5%
Cc1ccc(S(=O)(=O)NC(=O)NCc2ccc(F)cc2)cc1	-4%	5	-6%	-2.4%
CC(C)COP(=O)(OCC(C)C)C(O)c1ccc(F)cc1 (stereo unspecified)	1%	3	3%	-0.4%
CCOC(=O)c1oc2cc(OCC(=O)OC)ccc2c(=O)c1-c1ccc(OC)c(OC)c1	28%	-2	0%	-4.9%
COc1cccc(-c2sc3ccc(OC)cc3c2-c2ccc(OC)cc2F)c1	-11%	x	x	-2.5%
CCOc1ccc(NS(=O)(=O)c2ccc(C(=O)N(CC)CC(=O)NCc3cccs3)cc2)cc1	-4%	x	7%	-1.7%
CCCCNc1ncnc2c1cnn2-c1ccccc1	10%	2	1%	-0.6%
N#Cc1ccccc1S(=O)c1ccccc1C(=O)Nc1ccccc1 (stereo unspecified)	u	-1	-2%	0.8%
O=C(Nc1csc([N+](=O)[O-])c1)Nc1ccccc1Cl	0%	-10	24%	-2.4%
COCCOC1CCN(C(=O)C2CCC(=O)N(CCc3ccccc3)C2)CC1 (stereo unspecified)	-3%	x	1%	-3.2%
S=c1[nH]nc(-c2ccc(Cl)cc2)n1/N=C/c1ccco1	10%	-11	-4%	-0.1%
COc1cc(C(=O)NCC(=O)NC(C)CCc2ccccc2)cc(OC)c1OC (stereo unspecified)	4%	x	-1%	0.0%
Cc1ccc(C(=O)/C=C/c2ccccc2[N+](=O)[O-])cc1	0%	-2	-20%	0.0%
COc1ccc(OCCOC(=O)c2[nH]c(C)c(C(C)=O)c2C)cc1	-11%	4	6%	-2.4%
CC(CCc1ccccc1)NC(=O)c1ccc(NC(=O)c2ccccc2)cc1 (stereo unspecified)	12%	2	-10%	-1.0%
O=C(Nc1ccc(-c2nc3ccccc3[nH]2)cc1)c1ccc2c(c1)OCO2	9%	-4	-55%	-0.4%
O=C(CNc1n[nH]c(=O)[nH]c1=O)N/N=C/C1CC=CCC1 (stereo unspecified)	6%	-2	1%	-0.4%
CC(C)n1c(N2CCN(C(=O)c3cccs3)CC2)nc2ccccc21	23%	-6	-1%	3.8%
COc1ccc(OCc2cc(-c3ccc(Cl)cc3)no2)cc1	-2%	9	1%	2.2%
CCOc1ccc(C(=O)Nc2c3c(nn2-c2cccc(C)c2C)CS(=O)C3)cc1 (stereo unspecified)	4%	1	-2%	-4.8%
CC(=O)NC(CCS(C)(=O)=O)C(=O)Nc1cc(C)on1 (stereo unspecified)	-4%	5	-1%	-1.1%
O=C(Nc1ccc(CN2CCOCC2)cc1)c1ccc(-c2cccc([N+](=O)[O-])c2)o1	1%	x	29%	-2.9%
COc1ccc(C(=O)NC(C)c2csc(C)n2)cc1OC1CCN(C(C)=O)CC1 (stereo unspecified)	-3%	x	-1%	-0.4%
CCN(CC)CCCNC(=O)CSc1c2c(nc3cc(Cl)ccc13)CCCC2	14%	3	u	3.6%
O=C(COC(=O)c1cc(S(=O)(=O)N2CCCC2)ccc1O)NCc1ccccc1	1%	x	x	-0.1%
Cc1cc(C)c(C)c(OCCCN(C)C)c1	1%	11	-3%	-0.6%
Cc1cc(NC(=O)CCCN2C(=O)c3cccc4cccc(c34)C2=O)no1	-4%	13	-15%	6.0%
CC(C)N1C(=O)C(Cc2nc3ccccc3c(=O)n2-c2ccccc2)c2ccccc21 (stereo unspecified)	-18%	-5	-22%	0.3%
O=C(N/N=C/CCc1ccccc1)C1CCCCC1	14%	-3	-12%	-2.4%
COC(=O)CC1C(=O)NCCN1C(=S)Nc1cccc(C(F)(F)F)c1 (stereo unspecified)	17%	4	-2%	1.2%
FC(F)(F)c1ccc(N2CCN(c3ncnc4c3nnn4Cc3ccccc3)CC2)nc1	u	10	3%	-1.2%
Clc1ccc(NCc2nnc3n2CCCCC3)cc1	-1%	2	-6%	1.9%
COc1ccc(C(=O)COC(=O)c2ccccc2C(=O)N(C)c2ccccc2)c(OC)c1	9%	x	x	1.5%
CC(=O)Nc1cccc(NC(=O)CSc2n[nH]c(-c3ccccc3)n2)c1	1%	x	x	-1.4%
COc1ccc2oc(=O)c(C(=O)n3ccc(C)n3)cc2c1	-22%	0	-8%	-1.1%
Cc1ccc(-c2nnc(OCCN3CCOCC3)c3ccccc23)cc1	-22%	4	-7%	u
CSc1ccc(CN2CCC(Cc3ccccc3)CC2)cc1	u	x	10%	u
Cn1c(=O)c2c(SCC(=O)Nc3ccccc3F)nc(C3CC3)nc2n(C)c1=O	-5%	x	-2%	0.9%
COc1ccc(C2CC(c3cccs3)=NN2C(=O)CSc2nc3ccccc3s2)cc1 (stereo unspecified)	12%	4	-1%	-1.8%

Four records picked at random from the list so far:
SMILES	Rango dissoc inh	GLA inh pH 4.5	miR-21 FLuc	Rango complex inh
CSc1ccc(CN2CCC(Cc3ccccc3)CC2)cc1	u	x	10%	u
FC(F)(F)c1ccc(N2CCN(c3ncnc4c3nnn4Cc3ccccc3)CC2)nc1	u	10	3%	-1.2%
COc1ccc2oc(=O)c(C(=O)n3ccc(C)n3)cc2c1	-22%	0	-8%	-1.1%
COc1ccc(C2CC(c3cccs3)=NN2C(=O)CSc2nc3ccccc3s2)cc1 (stereo unspecified)	12%	4	-1%	-1.8%

Continuation.
SMILES	Rango dissoc inh	GLA inh pH 4.5	miR-21 FLuc	Rango complex inh
COc1cccc(OC)c1C(=O)OCC(=O)N(c1ccccc1)C1CCCCC1	-7%	x	x	-0.3%
COc1cccc(N(CC(=O)NCCN2CCOCC2)S(=O)(=O)c2ccccc2)c1	28%	x	x	-1.5%
O=C(NCc1nc(-c2ccccc2)no1)c1ccc(Br)o1	3%	-2	-5%	-6.1%
COc1ccc(/C=N/NC(=O)c2nnn(-c3nonc3N)c2-c2cccs2)c(OC)c1	-1%	x	-4%	-2.8%
COc1ccccc1C(=O)NC1CCSc2ccccc21 (stereo unspecified)	1%	x	-15%	-3.1%
CC(=O)Nc1ccc(NC(=O)C(C)OC(=O)c2c(NC(C)=O)sc(C)c2C)cc1 (stereo unspecified)	4%	x	x	3.4%
Cc1ccc(SCCNC(=S)Nc2cc(C)ccc2C)cc1	11%	0	7%	9.4%
CN1CCN(c2cc(=O)n(Cc3ccc(F)cc3)c(=O)[nH]2)CC1	-12%	14	-3%	0.5%
CCOc1ncccc1C(=O)N1CCN(C(=O)c2ccccc2)CC1	-10%	-6	-1%	-3.0%
CSc1ccc(C(=O)C2CCCN(C(=O)c3csc(C(C)=O)c3)C2)cc1 (stereo unspecified)	1%	-2	-4%	1.1%
Cc1c(NC(=O)CN(c2ccccc2)S(=O)(=O)c2ccc(F)cc2)c(=O)n(-c2ccccc2)n1C	2%	x	2%	8.3%
COC(=O)c1cc(=O)n(Cc2ccc(OC)c(OC)c2)c(=Nc2ccc(F)cc2)s1	7%	-1	-1%	-2.5%
CC1CCCN(S(=O)(=O)c2ccc(NC(=O)C3CC(=O)N(c4ccccc4)C3)cc2)C1 (stereo unspecified)	-26%	x	4%	1.6%
O=C(NC1CC1)C1CCN(C2CCN(C(=O)Cc3ccc(F)cc3)CC2)CC1	14%	x	-5%	1.0%
CCOC(=O)C1(Cc2ccc(OC)cc2)CCN(C(=O)C2CC(=O)N(C3CC3)C2)CC1 (stereo unspecified)	5%	-3	-4%	0.4%
CS(=O)(=O)c1ccc2nc(NC(=O)CN3CCOCC3)sc2c1	14%	x	3%	1.4%
CCOc1ccc(-c2cn(-c3ccc(OC)cc3)c(SC)n2)cc1	12%	3	-81%	8.8%
Cc1ccc(-c2nnn(CC(=O)N(CC(=O)NC(C)C)c3cnc4ccccc4c3)n2)o1	-1%	4	-5%	-0.3%
Cc1nc2c([nH]c3ccccc32)c(=O)n1N	6%	-3	-19%	-1.1%
O=c1cc(-c2cccnc2)oc2c1ccc1ccccc12	1%	8	0%	-0.4%
Cc1cccc(C)c1NC(=S)N1CCOCC1	8%	-17	-3%	1.3%
Cc1ccccc1-n1c(N)cc(=O)[nH]c1=S	-12%	-1	4%	-0.1%
COCc1cc(C)nc(SCC(=O)NCC2CCCO2)c1C#N (stereo unspecified)	-5%	x	1%	-1.9%
COc1ccccc1CNC(=O)C(CC(C)C)NS(=O)(=O)c1ccc2c(c1)oc(=O)n2C (stereo unspecified)	-3%	2	1%&-10%	1.0%
O=C(CCN1C(=O)c2ccccc2C1=O)NC(=S)Nc1ccccc1Cl	34%	4	4%	-0.2%
COc1ccc(CC2SC(N)=NC2=O)cc1 (stereo unspecified)	7%	x	-3%	0.1%
CCOC(=O)c1cnc2cc(F)c(F)cc2c1N1CCOCC1	-3%	x	2%	1.8%
CCOC(=O)NN1C(=O)c2ccccc2NC1c1cccc(O)c1 (stereo unspecified)	0%	2	-10%	-1.1%
O=C(CCn1[nH]c(=O)c2ccccc2c1=O)N1CCOCC1	2%	-5	-1%	0.5%
CCOC(=O)N1CCC(N(C(=O)Nc2cccc(OC)c2)C(C)CC)CC1 (stereo unspecified)	-22%	-14	-8%	3.5%
COc1c(C)cc(C(=O)C2CCCN(Cc3ccc(Oc4ncccn4)cc3)C2)cc1C (stereo unspecified)	0%	x	11%	-0.3%
O=C(CNS(=O)(=O)c1ccc(Br)s1)N1CCN(c2ccc(F)cc2)CC1	11%	x	9%&12%	0.1%

7 structures already listed, sorted by length of the SMILES, low to high:
SMILES	Rango dissoc inh	GLA inh pH 4.5	miR-21 FLuc	Rango complex inh
COc1ccc(CC2SC(N)=NC2=O)cc1 (stereo unspecified)	7%	x	-3%	0.1%
COCc1cc(C)nc(SCC(=O)NCC2CCCO2)c1C#N (stereo unspecified)	-5%	x	1%	-1.9%
CCOC(=O)c1cnc2cc(F)c(F)cc2c1N1CCOCC1	-3%	x	2%	1.8%
O=C(CCn1[nH]c(=O)c2ccccc2c1=O)N1CCOCC1	2%	-5	-1%	0.5%
O=C(CCN1C(=O)c2ccccc2C1=O)NC(=S)Nc1ccccc1Cl	34%	4	4%	-0.2%
CCOC(=O)N1CCC(N(C(=O)Nc2cccc(OC)c2)C(C)CC)CC1 (stereo unspecified)	-22%	-14	-8%	3.5%
COc1ccccc1CNC(=O)C(CC(C)C)NS(=O)(=O)c1ccc2c(c1)oc(=O)n2C (stereo unspecified)	-3%	2	1%&-10%	1.0%
